Assay outcomes as filed in PubChem.
NPYLR7 agonist: agonists of mosquito NPYLR7 receptor, primary screen, cell-based, Aedes aegypti, calcium fluorescence, mosquito biting behavior; Aedes aegypti neuropeptide Y-like receptor 7 (NPYLR7); AID 1259423, 2018; hit rate 0.15% among 270,000; HEK293T NPYLR7/Galpha15, GCaMP6s calcium fluorescence; activation, % at 10 µM; in the data active = activation above about 40%;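 also: 0% = vehicle and 100% = reference agonist at the receptor; some compounds past the cut are filed as inactive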
NPYLR7 agonist max-min: further read-out of NPYLR7 agonist, marked with its call; activation, %; measured here: Max-Min RFU normalised activation; some inactives read as strong as hits;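 span of the calcium signal over five minutes; 0% = vehicle and 100% = native peptide agonist; compound fluorescence can raise it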
Active calls of the source: *; & = joins results of further samples. This is a subset. The share of hits here may be higher or lower than overall.

SMILES	NPYLR7 agonist	NPYLR7 agonist max-min
Cc1cc(C(=O)N(CCCN(C)C)c2nc3c(C)ccc(Cl)c3s2)on1	0	13
Cc1cccc(Nc2ccccc2C(=O)N2CCNC(=O)C2)c1C	4	5
CCOC(=O)C1CCN(C(=O)c2cc(-c3ccc(OC)cc3)nc3cc(C(C)(C)C)nn23)CC1	0	6
CCCc1[nH]n(-c2ccccc2)c(=O)c1C1=C(N2CCOCC2)C(=O)N(Cc2ccccc2)C1=O	0&0	-11&7
O=C(Nc1ccc2nc([C@@H]3O[C@H](CO)[C@@H](O)[C@H](O)[C@H]3O)[nH]c2c1)c1sccc1Cl	3	13
CCOC(=O)C1(Cc2cccc(OC)c2)CCN(C2CCOCC2)CC1	-2	14
COc1ccc(-c2cnc(CN3CCCCC3CNC(=O)OC(C)(C)C)o2)cc1 (stereo not drawn)	6	5
CCOC(=O)c1nn(-c2ccccc2Cl)c(=O)cc1OS(=O)(=O)N(C)C	-1	6

Ordered by heavy-atom count (high to low): some entries from above.
SMILES	NPYLR7 agonist	NPYLR7 agonist max-min
CCOC(=O)C1CCN(C(=O)c2cc(-c3ccc(OC)cc3)nc3cc(C(C)(C)C)nn23)CC1	0	6
COc1ccc(-c2cnc(CN3CCCCC3CNC(=O)OC(C)(C)C)o2)cc1 (stereo not drawn)	6	5
CCOC(=O)C1(Cc2cccc(OC)c2)CCN(C2CCOCC2)CC1	-2	14

Following part
SMILES	NPYLR7 agonist	NPYLR7 agonist max-min
Cc1cc(C)n2[nH]c(=S)nc2n1	8	8
O=C(NCc1nn(Cc2ccccc2)c(=O)c2ccccc12)c1ccccc1	-3	-9
CCc1c(C)nc(-n2nc(C)cc2NC(=O)COc2ccc(Cl)cc2Cl)[nH]c1=O	12	7
Cc1cc(C)cc(N2CCn3c2nc2c3c(=O)n(CCN3CCOCC3)c(=O)n2C)c1	-2	-6
CCCCn1c(N)c(N(CCOC)C(=O)c2cc(-n3c(C)ccc3C)ccc2Cl)c(=O)[nH]c1=O	-2	-7
C[N+]1(CCCCC[N+]2(C)CCCC2)CCCC1	-11&7&-2&-2	-18&6&-5&-9
Cc1ccc2ccccc2c1CN1CCN(c2c([N+](=O)[O-])c(=O)n(C)c3ccccc23)CC1	12	8
COc1ccc(C(N)c2ccccc2)cc1Br (stereo not drawn)	15	8
CC(=O)N[C@@H](Cc1cnc[nH]1)C(=O)N1CCC(CO)(Cc2ccccc2)CC1	0	-6
COc1ccc(CC2CCN(C(=O)[C@H](C)OC(C)=O)CC2)cc1	3	0
COc1ccc(-c2cc(CN3CCN(S(=O)(=O)c4ccc(OC)cc4)CC3)on2)cc1	-5	-7
CCC(C)NC(=O)c1c(C(F)(F)F)nn(C2CCCN(C(C)C)C2)c1C (stereo not drawn)	14	5
CCCCn1c(=O)[nH]c(=O)c2c1nc(Cn1ncc(Cl)c(Cl)c1=O)n2CCC	12	10
C=CCN(Cc1nc2sc3c(c2c(=O)[nH]1)CCC3)CC(O)COc1ccccc1 (stereo not drawn)	5	4
Cc1cc2ncn(CCOc3ccccc3C#N)c2cc1C	26	11
CCC(CC)C(=O)N(C)c1c(C)nc2ccc(C(=O)Nc3cccc(NS(C)(=O)=O)c3)cn12	18	9

Complete entries from above:
Results for `C=CCN(Cc1nc2sc3c(c2c(=O)[nH]1)CCC3)CC(O)COc1ccccc1` (stereo not drawn) : NPYLR7 agonist: 5; NPYLR7 agonist max-min: 4
Results for `CC(=O)N[C@@H](Cc1cnc[nH]1)C(=O)N1CCC(CO)(Cc2ccccc2)CC1` : NPYLR7 agonist: 0; NPYLR7 agonist max-min: -6

Continuation:
SMILES	NPYLR7 agonist	NPYLR7 agonist max-min
O=C(NCC1CCCO1)[C@@]1(OCc2ccccc2F)CC(OCc2ccc(C(F)(F)F)cc2)[C@H](O)[C@H](O)C1 (stereo partly drawn)	1	15
COc1ccc(C=C2CCCC3C2=NN(C(=O)CCl)C3c2ccc(OC)cc2)cc1 (stereo not drawn)	-3	-5
COc1cn(CC(N)=O)c(CSc2nc(C)cc(C)n2)cc1=O	-3	-9
O=C(O)[C@H]1C[C@H](C(=O)N2CCOCC2)CN(Cc2cc3ccccc3o2)C1	2	3
COc1cc(NCC2CCN(C(=O)C(C)C)CC2)ncn1	3	3
O=C(O)c1cn(Cc2cccc(F)c2)nc1OCc1cccc(F)c1	-5	-8
CCN1CCN(c2nc(N)c([N+](=O)[O-])c(N3CCCCC3)n2)CC1	1	-2
c1ccc(-c2ccc(-c3[nH]ncc3CN3CCN(c4ncccn4)CC3)cc2)cc1	0&0	-6&-3
CC(C)C(=O)N1CCC(NCc2ccc(OCCO)cc2Br)CC1	0	4
COc1cc(CN[C@@H]2CS(=O)(=O)C[C@H]2O)ccc1OCc1cccc(F)c1	-17	-16
Cc1ccc(S(=O)(=O)C=C(O)c2ccc[nH]2)c(C)c1	4	3
CCOc1ccc(-c2nc3ccc(Br)cn3c2NC2CCCCC2)cc1	6&-1	6&2
Cc1ccc(CNC(=O)c2c(O)nc3c(C)cccn3c2=O)cc1	-2	5
Cc1cc(COC(=O)C2=CN3CCS(=O)(=O)N=C3C=C2)no1	6	11
COc1ccccc1CNC(=O)CSc1ccc(-c2sc(C)nc2C)nn1	1	-10
COCCN1C(=O)N(Cc2ccccc2)C2(CCN(Cc3ccc4c(c3)CCO4)CC2)C1=O	7	-2
O=C1CCC(C(=O)OCC(=O)c2ccc(Br)s2)=NN1	6	6
CC(C)ON1C(=O)C2C3C=CC(O3)C2C1=O (stereo not drawn)	0	23
C=CC[C@@H]1CC=C[C@@H](C)N1C(=O)CCc1nnc(Cc2cc(OC)ccc2OC)o1	1	-3
COCCNc1ncnc2c1c(-c1ccccc1)cn2-c1cccc(C(F)(F)F)c1	17	19
Cc1cc(C(=O)COC(=O)c2ccc(Cl)s2)c(C)n1-c1ncn[nH]1	8	6
COc1ccc(S(=O)(=O)NC(=O)C2(C)CCN2C(=O)C2CC2)cc1OC (stereo not drawn)	-3	-2
COc1ccc(N(Cc2cc(=O)n(C)c(=O)n2C)C(C)C2CC2)cc1 (stereo not drawn)	-2	-4
COc1ccc(CCNC(=O)c2ccccc2N2CCC(NC(=O)NC(C)(C)C)CC2)cc1	15	13
O=C1NC(=S)N/C1=C/c1ccccc1I	1	-2
CCOC(=O)C1=C(CC)NC2=C(C(=O)CC(C)(C)C2)C1c1ccc(OC)cc1 (stereo not drawn)	-4	-10
Cc1cc(-c2ccccc2)c2c(n1)sc1c(=O)[nH]cnc12	7	14
O=C([C@@H]1Cc2nc[nH]c2CN1Cc1cccc(OC(F)(F)F)c1)N1CCC(Cc2ccccc2)CC1	-6	-14
Cc1ccsc1C(CNC1CCSCC1)N(C)C (stereo not drawn)	-6	-9
CCc1ccc2nc(C)cc(C(=O)N(C)Cc3nc(C4CC4)no3)c2c1	-5	-13
O=c1ccc2cc(S(=O)(=O)Nc3cccnc3)ccc2o1	4	2
COc1ccc(-c2cnc(-c3ccc(CNC(=O)c4cccc(C#N)c4)cc3)[nH]2)cc1	2	-1
CCNCc1cnn(CC)c1	-17	-20
COc1ccc(CSc2nnc(NC(C)=O)s2)cc1	-3	-2
CCNC(=O)N1CCCN(c2cc(Oc3ccc(F)c(Cl)c3)ncn2)CC1	-9	3
O=C(NCC1CCC(c2nc3ccccc3[nH]2)CC1)c1ccc(Cn2ccnc2)cc1 (stereo not drawn)	-1	-4
CNc1cc(-c2ccc(OC)cc2OC)ncn1	0	0
CC(C)(CCl)C(=O)N1CCN(c2ncnc3c2nnn3Cc2ccccc2)CC1	-2	-8
NC(=O)c1cccnc1N1CCC(n2cc(CC3CCCCC3)nn2)CC1	17	3
COc1cc(/C=N\NC(=O)Cn2cnc([N+](=O)[O-])n2)ccc1O	-8	-12
COCCNC(=O)Cn1c(CO)cnc1SCc1ccccc1	7	3
O[C@@H]1CN(Cc2c(Cl)nc3sccn23)CC[C@H]1c1ccc2c(c1)OCO2	5	4
Cc1cnc(C(=O)NC2(C(=O)OC(C)(C)C)CCCC2)cn1	11	9
CC(C)NS(=O)(=O)c1cccc(C(=O)Nc2nc(C(C)C)cs2)c1	6	4
O=C(c1cc(-c2ccco2)nn1-c1ccc(F)cc1)N1CCN(c2ccc([N+](=O)[O-])cc2)CC1	11	23
O=C(O)C(CCCCN1C(=O)C2C3C=CC(C3)C2C1=O)N1C(=O)C2C3C=CC(C3)C2C1=O (stereo not drawn)	6	2
Cc1sc2ncnc(SCC(=O)Nc3ccc(F)c(F)c3F)c2c1C	-8	-12
O=C(CC(c1ccccc1)c1ccco1)NCc1cccnc1 (stereo not drawn)	-5	-10
COc1ccc(Nc2ccc3c(C4CC4)noc3n2)cc1	1	-1
CCOc1ccc(C2C(C(=O)c3cccs3)=C(O)C(=O)N2CCN2CCOCC2)cc1 (stereo not drawn)	1	6
O=C(C1CC1)N1CCCC(OCc2cccc(C(F)(F)F)c2)C1 (stereo not drawn)	-5	2
CCc1ccccc1OCCN(C)C(=O)c1cnc(-c2ccncc2)nc1	24	11
C=CCNCC(=O)N1CCc2sccc2C1COc1ccc(C)cc1C (stereo not drawn)	13	20
CCN1C(=O)NC(c2ccccc2Cl)C(C(=O)OC(C)C)=C1C (stereo not drawn)	-1	-4
O=S(=O)(c1ccc(OCc2cccc(C(F)(F)F)c2)cc1)N1CCOCC1	5	2
CC(C)c1ccc(C(NC(=O)CSc2nnnn2-c2ccccc2)C(C)C)cc1 (stereo not drawn)	6	14

Later entries.
SMILES	NPYLR7 agonist	NPYLR7 agonist max-min
CCN(CC(C)C#N)C(=O)CNC(=O)/C=C/c1ccccc1 (stereo not drawn)	6	5
COc1ccc(-c2cc(C(=O)NC3CC3)n3nc(C(C)(C)C)cc3n2)cc1	10	13
COc1ccccc1CNC(=O)C1CC2(CCNCC2)c2ccccc21 (stereo not drawn)	1	13
COc1ccc(CCNC(=O)c2cccnc2N2CCN(S(=O)(=O)c3ccc(C(F)(F)F)cc3)CC2)cc1OC	12	-6
CCN(CC)c1nc2c(c(=O)[nH]c(=O)n2C)n1CCCc1ccccc1	18	17
CCCOC1CCCN(S(=O)(=O)c2ccc(F)cc2)C1 (stereo not drawn)	-4	-1
COCCCNC(=O)c1nn(-c2ccc(OC)c(OC)c2)c(=O)n(Cc2ccccc2C)c1=O	0	7
Cc1ccnc(Nc2ccc(NCCNC(=O)c3ccc4c(c3)OCO4)nn2)c1	10	2
CC(C)c1ccc(CSc2nnc(NC(=O)c3ccccc3Br)s2)cc1	9	24
Cc1ccc(-c2onc3c2CCCC3)cc1NC(=O)C(F)(F)C(F)(F)C(F)(F)F	-4	-13
CCCCN(CC(=O)N1c2ccccc2-n2cccc2C1c1cc(OC)ccc1OC)C(=O)c1ccc(Cl)cc1 (stereo not drawn)	24	32
C=CC(=O)N1CC(=O)N2CCc3ccc(F)cc3C2C1 (stereo not drawn)	-2	5
Cc1nc(CCNC(=O)CCc2nnc(-c3ccc4c(c3)OCO4)o2)sc1C	10	5
CCSc1nnc2c(n1)OC(c1ccncc1)Nc1ccccc1-2 (stereo not drawn)	-8	-14
COc1ccc(CN(Cn2nc(C3CC3)n(C)c2=S)C2CC2)cc1	-3	-3
Cc1ccc(Oc2ccccc2)c(NCC(=O)NCC#N)c1	8	6
O=C1NCCN2CCN(C(=O)c3cccnc3N3CCOCC3)CC12 (stereo not drawn)	5	1
Cn1cc(S(=O)(=O)NCCC(c2ccccc2)c2ccccc2)c(=O)n(C)c1=O	1	-2
O=c1c2nnn(-c3ccccc3)c2ncn1C/C=C/c1ccccc1	-4	-4
COC1CCN(S(=O)(=O)N2CCNC(C(=O)O)C2)CC1 (stereo not drawn)	4	2
O=C(CC1C(=O)NCCN1Cc1c(F)cccc1Cl)NCCc1ccc(O)cc1 (stereo not drawn)	23	6
S=C(NCCc1ccccc1)NN=C1CC2CC=CC12 (stereo not drawn)	1	1
Cc1ccc(Cl)c(OCC(O)CNC(C)(C)C)c1 (stereo not drawn)	-16	-27
Cc1cn(CCn2cnc(-c3ccccc3)c2-c2ccccc2C(=O)O)nn1	2	-1
N#CC1C(=N)Oc2n[nH]c(-c3ccc4c(c3)OCO4)c2C1c1ccncc1 (stereo not drawn)	9	7
CCCCCn1cnnc1SC(C(=O)NC(N)=O)C(C)C (stereo not drawn)	6	11
O=c1[nH]c(CSc2nnnn2C2CCCC2)nc2ccsc12	6	5
Cc1cccc(S(=O)(=O)N2CCCC3(CCN(C)C3)C2)c1 (stereo not drawn)	2	-1
COc1ccc(OC)c(NC(=O)C(C)N2CCN(Cc3ccc(Cl)s3)CC2)c1 (stereo not drawn)	2	0
CCn1cc(-c2n[nH]c(=O)n2Cc2ccccc2)cn1	2	8
CCOC(=O)c1c(C)c(C(=O)CN(C(=O)/C=C/c2ccccc2)C2CC2)c(C)n1CC	-6	-2
